# AmpC inh no det: Promiscuous and Specific Inhibitors of AmpC Beta-Lactamase (assay without detergent); P00811; AmpC nitrocefin hydrolysis, absorbance 480 nm, no detergent; potencies from a single point are estimates; Potency, µM (titrated, usually from 28.7 µM), inactives show at the top dose activity change, negative = inhibition; 71,000 tested, 1.8% active; active = falling curve, for most hits resting on a single point; inconclusive = weak or doubtful change; inactive = flat or rising curve; note: % of control where 0% means no effect; about half of the hits show no inhibition at the top dose; a quarter of the inactives give rising signals
# Target sequence (P00811 whole entry, looked up): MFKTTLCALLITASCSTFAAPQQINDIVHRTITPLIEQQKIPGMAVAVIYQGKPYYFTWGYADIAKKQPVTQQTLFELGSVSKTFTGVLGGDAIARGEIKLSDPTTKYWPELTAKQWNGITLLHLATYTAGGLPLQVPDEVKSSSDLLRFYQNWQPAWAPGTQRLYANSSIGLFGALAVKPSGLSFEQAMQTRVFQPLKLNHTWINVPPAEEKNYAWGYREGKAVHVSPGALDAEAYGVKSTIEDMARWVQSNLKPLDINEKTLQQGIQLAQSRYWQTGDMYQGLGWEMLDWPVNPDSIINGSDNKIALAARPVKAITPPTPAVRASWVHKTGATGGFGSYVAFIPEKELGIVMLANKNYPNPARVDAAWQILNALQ
#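 AmpC, 20 mM phosphate pH 7.0; 15 min cpd preinc, RT; start with nitrocefin (800 uM stock); A480 kinetic read, 20 s intervals, 4 min. No-enzyme wells = negative control.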
# * = called active by the depositor; ? = inconclusive; [ ] = remark or other dose. Potency is the fitted concentration of half-maximal effect. Some of the compounds tested; count on the stated rates, not on these rows.
SMILES,AmpC inh no det
O=C(NCCN1CCCCCC1)c1ccc(CS(=O)(=O)c2ccc(Br)cc2)o1,4µM*[single pt active]
N#Cc1nn(-c2ccccc2)nc1N1CCCCC1,1%
COc1ccc2c(C(=O)CN3CC(C)OC(C)C3)c[nH]c2c1 (stereo unspecified),4%
O=C1C2CCCN2C(c2cccnc2)N1c1ccc(Cl)c(Cl)c1 (stereo unspecified),36%
CCC1(C)COC2(OC1)C(=O)Nc1ccccc12 (stereo unspecified),-4%
Cc1nn(C)c(C)c1NC(=O)CSc1nc(Cc2ccccc2)nc2c1cnn2-c1ccccc1,64%
O=C(CSc1nnnn1C1CCCCC1)N1CCCC1,-1%
NC(=O)CI,13µM*
COc1ccc(-c2[nH]ncc2-c2cnc(C)s2)c(O)c1,3%
c1ccc2[nH]c(CSc3ncnc4c3oc3ccccc34)nc2c1,8%
O=C(NCC(F)(F)F)Nc1ncccn1,8%
Cn1nnnc1SCC(=O)NC(C)(C)C,-12%
CS(=O)(=O)N(CC(N)=O)Cc1ccc(Cl)cc1,-6%
COC(=O)c1c(C)[nH]c(C(=O)CN2CCOCC2)c1C,-4%
CCCC[C@@H]1C[C@H]1C(NC(=O)c1ccc(-c2ccccc2)cc1)c1ccc(-c2ccccc2)cc1 (stereo partly specified),?
O=C(C1CCN(S(=O)(=O)c2cccc3cccnc23)CC1)N1CC=C(c2ccccc2)CC1,34%
CC(NC(=O)NC1CCCCC1)C(c1cccs1)N1CCN(C)CC1 (stereo unspecified),8%
Cc1c(C(=O)NCc2ccccc2)oc2ccc(S(=O)(=O)N3CCCC3)cc12,14%
O=C(O)C1CCCN1c1ncnc2c1oc1ccccc12 (stereo unspecified),-19%
Cn1c(=O)cc(OCCCC(=O)N2CCN(c3ccccc3)CC2)c2ccccc21,114%
Cc1cc2c(c(=O)n1Cc1cccnc1)C(Cc1ccccc1)C(C#N)=C(N)O2 (stereo unspecified),12%
Cc1ccc2nc(C)cc(OCC(=O)O)c2c1,-15%
COc1cccc(CSCC(=O)O)c1,0%[5.75 µM]
Nc1nc2sc3c(c2cc1C(=O)N1CCOCC1)CCCC3,123%
CN1CCN(S(=O)(=O)c2ccc(Cc3ccc(S(=O)(=O)N4CCN(C)CC4)cc3)cc2)CC1,115%

# Taken from the results shown, 5 compounds:
SMILES,AmpC inh no det
Cc1nn(C)c(C)c1NC(=O)CSc1nc(Cc2ccccc2)nc2c1cnn2-c1ccccc1,64%
O=C(CSc1nnnn1C1CCCCC1)N1CCCC1,-1%
NC(=O)CI,13µM*
COc1ccc(-c2[nH]ncc2-c2cnc(C)s2)c(O)c1,3%
c1ccc2[nH]c(CSc3ncnc4c3oc3ccccc34)nc2c1,8%

# (continued)
SMILES,AmpC inh no det
CCOc1ccc(C(=O)Nc2c3c(nn2-c2ccc(F)cc2)CS(=O)C3)cc1 (stereo unspecified),20%
CCCn1c(NCc2cc(OC)ccc2OC)nc2ccccc21,22%
CN1C(=O)C(O)(CC(=O)c2ccccc2O)c2cc(Br)ccc21 (stereo unspecified),13%
CCOC(=O)N1CCN(C(=O)CSc2nnc(-c3cc(OC)cc(OC)c3)o2)CC1,120%
CC(=O)CC(=O)Nc1cccc2c1CCCC2,1%
CCNCC1(c2ccc(OC)c(OC)c2)CCCC1,-11%
CCOC(=O)c1cccc(NC(=O)CSc2nnnn2C)c1,2%
COc1ccc(OC)c(S(=O)(=O)NCc2cn3cccc(C)c3n2)c1,-5%
CCCC1CC(C)(C(=O)Cn2[nH]c(=O)ccc2=O)OC1=O (stereo unspecified),-1%
COc1ccccc1-c1nccc(NC2CCNCC2)n1,-6%
CCCNC(=O)c1cc(-c2ccc(O)cc2)on1,-16%
CC(C)CC1(C)NC(=O)N(CC(=O)NC(=O)Nc2ccc3c(c2)OCCO3)C1=O (stereo unspecified),4%
COc1cccc(N2CC(C(=O)NC3CCCCC3)CC2=O)c1 (stereo unspecified),12%
CC(C)CN1CCCC2(CCN(C(=O)c3csnn3)CC2)C1,49%
O=C(Nc1cccnc1)c1c(F)cccc1F,-6%
COc1ccc(-n2cnnc2SC(C)c2nc3sc(C)c(C)c3c(=O)[nH]2)cc1 (stereo unspecified),3%
COc1ccc(C(NC(N)=O)c2ccccc2)cc1 (stereo unspecified),-5%
CCOC(=O)c1c(NC(=O)CSc2nnc(-c3cccnc3)n2Cc2ccco2)sc(C)c1C,118%
COc1cccc(Oc2nnnn2-c2ccccc2)c1,-2%
Cc1ccc(-c2nnc(SCc3ccccc3F)o2)cc1,-3%
CC(COc1ccccc1)N(CCCl)Cc1ccccc1 (stereo unspecified),12%
Cc1nc(N2CCN(C(=O)CCC(=O)O)CC2)c2c(C)c(C)sc2n1,-4%
CCc1nnc(NC(=O)CSc2nnc(COc3ccccc3)n2-c2ccc(C)cc2)s1,23%
Cc1cccn2c(=O)c3cc(C#N)c(=NC(=O)c4cccnc4)n(CC4CCCO4)c3nc12 (stereo unspecified),32%
N[C@@]1(C(=O)O)CCC[C@@H]1C(=O)O,-8%[5.75 µM]
SMILES,AmpC inh no det
O=C1c2ccccc2C(O)(Cc2ccccc2)N1C1CCCCC1 (stereo unspecified),24%
CC(=O)Nc1ccc2c(c1)CC1(C(=O)N(C)C(=O)N(C)C1=O)C1CCCN21 (stereo unspecified),23%
CC[C@@]1(O)C(=O)OCc2c1cc1n(c2=O)Cc2cc3c(NC(=O)CN)cccc3nc2-1,13%[5.75 µM]
CCC(=NCc1cccnc1)c1c(O)n(Cc2ccccc2)c(=O)[nH]c1=O,8%
Nc1nc(-c2ccc(Cl)cc2Cl)cn1N,-13%
O=C(NCCCn1ccnc1)c1cc(-c2ccc3c(c2)OCO3)on1,-8%
Cc1c(C(=O)N2CCOCC2)sc2ncnc(N3CCc4ccccc4C3)c12,92%
CC1(C)CC(Nc2ccc(Nc3ccccc3)cc2)CC(C)(C)N1,-1%[5.75 µM]
CCc1c(C)nc(SCC(=O)N2CCc3ccccc32)[nH]c1=O,0%
O=C(O)c1cccc(Cl)c1Cl,-16%
Cc1cccc(C2CC(c3ccc(F)cc3)Nc3nc(N)nn32)c1 (stereo unspecified),4µM*[single pt active]
COCCNC(=O)CCCCCN1C(=O)CCC1=O,0%
COc1ccccc1Oc1ccc(S(=O)(=O)Nc2cccnc2)cc1,-4%
Nc1nc(-c2nc3ccccc3[nH]2)cs1,-6%
COc1ccc(C2CC(=O)c3cnc(NC(=O)c4ccccc4OC)nc3C2)c(OC)c1 (stereo unspecified),83%
O=c1cnc2cnc(Nc3ccccc3)nc2n1Cc1ccc(F)cc1,13%
COc1ccc(C(=O)N2CCC3(CCCN(C(=O)Nc4cccc(F)c4)C3)CC2)cc1,50%
CC(C)CN(CC(C)C)c1nnc(N)s1,4µM*[single pt active]
CN1CCN(c2ncnc3ccc(-c4ccccc4C#N)cc23)CC1,45%
CCC(C)NC(=O)N[C@@H](Cc1ccccc1)C(=O)O (stereo partly specified),-1%
CCCn1c(=O)c2ccccc2n2c(SCC(=O)c3cc(C)n(CC4CCCO4)c3C)nnc12 (stereo unspecified),34%
CCCn1c(-c2ccc(F)cc2)cnc1SCC(=O)O,-4%
CC(=O)Nc1ccc(N/C=C/C(=O)c2ccc(C)o2)cc1,13%
O=C(CSc1ncn[nH]1)Nc1ccccc1C(=O)O,-12%
CC(C)NS(=O)(=O)c1ccc(OCC(=O)NCc2cccnc2)cc1,2%
SMILES,AmpC inh no det
O=C(CSc1nc2ccccc2o1)c1ccc2c(c1)OCCO2,-11%
O=C(O)CC(Cc1ccc(Br)cc1)C(=O)O (stereo unspecified),-4%
Cc1cccc(NC(=O)CN(C)S(=O)(=O)c2cccc3nsnc23)c1C,1%
CCOC(=O)c1cnc2ccc(Br)cc2c1NCCO,1%
COc1ccc(-c2csc3nc(C)n(-n4cccc4)c(=O)c23)cc1OC,43%
CC(C)CC(NC(=O)C(NC(=O)OC(C)(C)C)C(C)C)C(=O)N1CCCC1C(N)=O (stereo unspecified),16%
CNCCc1cnc[nH]1,12%
NCCc1nnc(SCc2c(F)cccc2Cl)o1,3%
Oc1ccccc1-c1nc(N2CCN(Cc3ccccc3)CC2)c2ccccc2n1,8%
CCOCCCN1C(=O)CN(C2CCCCCC2)C(=O)C1c1ccc(OC)cc1 (stereo unspecified),80%
Cc1onc(-c2ccccc2Cl)c1C(=O)Nc1ccc(-c2cn3cccnc3n2)cc1,134%
CCOC(=O)N1CCC(NC(=O)CCc2nc(-c3ccc(C)cc3)no2)CC1,73%
COC(=O)C(C)Oc1cc(C)cc2oc(=O)c3c(c12)CCC3 (stereo unspecified),24%
N=C(C[C@@H](O)COc1ccccc1-c1ccccc1)N1CCCCC1,68%
CN(C)CCCc1c2ccccc2nc2ccc(Cl)cc12,0%[5.75 µM]
CC(NS(=O)(=O)c1ccccc1)C(=O)Nc1nccs1 (stereo unspecified),-10%
COc1ccccc1NC(=O)CN(c1ccccc1F)S(C)(=O)=O,3%
CCOC(=O)c1cnn(-c2ncnc3c2oc2ccccc23)c1N,12%
c1ccc(Oc2cccc(OCCCn3cncn3)c2)cc1,63%
COc1ccc2ccccc2c1C(O)c1nccn1C (stereo unspecified),-5%
CC(=O)Nc1cccc(NC(=O)c2cc3ccccc3o2)c1,11%
CCCC(C(=O)N1CCOCC1)N1C(=O)C2C3C=CC(C3)C2C1=O (stereo unspecified),7%
Clc1cccc(CN2CCCCC2c2cccnc2)c1 (stereo unspecified),13%
COc1ccc(-c2noc(CN3C(=O)c4ccccc4C3=O)n2)cc1,13%
Cc1cc(NC(=O)NC2CCCN2S(=O)(=O)c2ccc(Cl)cc2)no1 (stereo unspecified),-19%

# Compounds shown so far that have a COOH group (10):
SMILES,AmpC inh no det
O=C(O)C1CCCN1c1ncnc2c1oc1ccccc12 (stereo unspecified),-19%
Cc1ccc2nc(C)cc(OCC(=O)O)c2c1,-15%
COc1cccc(CSCC(=O)O)c1,0%[5.75 µM]
Cc1nc(N2CCN(C(=O)CCC(=O)O)CC2)c2c(C)c(C)sc2n1,-4%
N[C@@]1(C(=O)O)CCC[C@@H]1C(=O)O,-8%[5.75 µM]
O=C(O)c1cccc(Cl)c1Cl,-16%
CCC(C)NC(=O)N[C@@H](Cc1ccccc1)C(=O)O (stereo partly specified),-1%
CCCn1c(-c2ccc(F)cc2)cnc1SCC(=O)O,-4%
O=C(CSc1ncn[nH]1)Nc1ccccc1C(=O)O,-12%
O=C(O)CC(Cc1ccc(Br)cc1)C(=O)O (stereo unspecified),-4%

# Other results
SMILES,AmpC inh no det
O=C(N/C(=N\O)c1ccccc1)Nc1ccc(Cl)cc1,-2%
CCOC(=O)CSc1nnc(Cc2ccccc2)n1Cc1ccco1,16%
COC(=O)[C@H](Cc1ccccc1)NC(=O)N1CCCCC1C (stereo partly specified),-1%
Cc1ccccc1NC(=O)Cn1nnc(-c2ccc(N3CCOCC3)cc2)n1,-6%
CC(C)C(NC(=O)C1CCCCC1)C(=O)NC1CCN(Cc2ccccc2)CC1 (stereo unspecified),0%
Cc1cc(N=Cc2cc(Br)ccc2O)no1,3%
O=C(O)Cn1nnn(-c2ccccc2)c1=S,11%
O=S(=O)(NCCSc1ccccc1)c1cccs1,-12%
COc1ccc(-n2c(SCC(=O)N3CCCCC3)nc(O)cc2=O)cc1,24%
Cc1c(NC(=O)CN2CCCc3ccccc32)c(=O)n(-c2ccccc2)n1C,5%
CSc1nnc([C@H](C)NC(=O)OC(C)(C)C)o1,-12%
CC(C)N(CCNC(=O)C1CCC(=O)N1Cc1ccc(F)cc1)Cc1ccccc1 (stereo unspecified),28%
CN(C)S(=O)(=O)c1ccc(C(=O)NCCOc2ccccc2)cc1,3%
CCNc1ncc2nc(-c3cc(F)cc(F)c3)c(=O)n(C)c2n1,7%
OC(COc1ccccc1Cl)CN1CCN(CC(O)COc2ccccc2Cl)CC1 (stereo unspecified),116%
CCS(=O)(=O)N1CCCC(C(=O)NCCc2ccc(OC)c(OC)c2)C1 (stereo unspecified),-1%
CCc1ccc(N(C(C)=O)C2C=CS(=O)(=O)C2)cc1 (stereo unspecified),-3%
C=CCn1c(Oc2cc(C)ccc2C)nc2c1c(=O)n(C)c(=O)n2C,93%
CCN(CC)S(=O)(=O)c1cccc(C(=O)NC(C(=O)NC2=NCCS2)C(C)C)c1 (stereo unspecified),18%
COc1ccc(-c2nc3n(c(=O)c2C#N)CCCS3)cc1,11%
Cc1sc2ncnc(NCCCO)c2c1C,-10%
Cc1ccc(-n2nc(C)c3c(C)c(CCC(=O)NCc4ccco4)c(C)nc32)cc1,10%
O=C(CCc1nc2ccccc2c(=O)[nH]1)OCc1nnc(-c2ccccc2)o1,-4%
CC1(C)N([O-])C(c2ccccc2)=C[N+](=O)C1(C)C,-1%
O=c1[nH]c2ccccc2cc1-c1noc(-c2cccnc2)n1,-12%
Cc1nc(C)c(C(=O)C2=C(O)C(=O)N(CCCN(C)C)C2c2ccco2)s1 (stereo unspecified),0%

# From PubChem BioAssay
